Assay outcomes deposited in PubChem by National Center for Advancing Translational Sciences (NCATS).
HSD17B inh – blocks hydroxysteroid 17-beta dehydrogenase activity | Q99714 | recombinant HSD17B10, NADH fluorescence kinetic; many of its hits are not listed in these tables | Potency, µM (highest dose often 57.1 µM), for inactives: at the highest dose activity change, negative = inhibition, hits mostly inhibitors | 75,000 tested, 7.6% active; active = well fitted inhibition curve with a large enough effect; inconclusive = small, poorly fitted or top-dose-only effect; inactive = no such curve, though single readings can be large or run the other way;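 note: the protocol describes HADH2 (HSD17B10) and not the HSD17B4 of the title; nearly all actives have a fitted effect of over 70% in size; most hits overshoot -100% by far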
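Enzyme plus compound, 15 min room temperature; substrate mix added (NAD+ 1 mM, beta-hydroxybutyryl-CoA 90 uM final); plates read kinetically for NADH fluorescence. HADH2 was His-tagged, E. coli-derived, 20 nM.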
The depositor's hits bear a star; ? = inconclusive; [ ] = remark or other dose. % is set by controls: 0 for no effect and ±100 for the full control effect; potency is the fitted concentration of half-maximal effect. This is a subset. The share of hits here may be higher or lower than overall.

SMILES	HSD17B inh
COc1ccc(C2CC(c3ccccc3C)n3nc(N)nc3N2)cc1 (centres undefined)	2.8%
Cc1cc(=O)oc2cc(O)c(CN(C)CC(=O)O)cc12	3.16µM*
C=CCN1CN(S(=O)(=O)c2cccs2)c2nc3ccccc3nc21	?
CCN(CC)C(=O)CSc1nnc(-c2cnccn2)n1-c1ccc(C)cc1	2.1%
C=CC[C@@H]1C=C[C@H](O/N=C(\C)CCN2CCc3nc(CC)c(CC)cc3C2)[C@H](CO)O1	6.9%[11.4 µM]
O=C(O)CCc1ccc(-c2cccs2)n1-c1ccc(C(=O)O)cc1	?
Cc1ccc(CN2CCSc3ccc(C(=O)N4CCN(c5ncccn5)CC4)cc32)cc1	12.6µM*
COC(=O)C1Cc2c([nH]c3ccccc23)C(C)N1 (centres undefined)	12.6µM*
COc1ccc(-n2ccnc2SCC(=O)Nc2ccc(OC)cc2OC)cc1	1.1%
COc1ccc(Oc2ncc3ncc(=O)n(-c4ccc(OC)cc4)c3n2)cc1	4.1%
CN1C(=S)SC(C)(C)C1NO (centres undefined)	14.9%
O=C(CP(=O)(c1ccccc1)c1ccccc1)Nn1cnnc1	1.2%
CO[C@@H]1COC(=O)C/C=C\[C@@H](C)[C@@H]2C=C[C@H](O)[C@@H](COC(=O)CCC[C@H]1C)O2	3.7%[11.4 µM]
Cc1ccc(C2N(c3nccs3)C(=O)C3CCCN32)cc1 (centres undefined)	0.7%
N#Cc1c(NC(=O)CSc2ncnc3sccc23)oc(-c2ccco2)c1-c1ccco1	20µM*
Cc1ccc2c(c1)-c1cc(C)nn1C(c1ccc3c(c1)OCO3)N2 (centres undefined)	25.1µM*
CCOC(=O)c1c(NC(=O)c2cccs2)sc(C)c1C	4.6%
Cc1ccc2[nH]c(=O)c(COC(=O)c3ccccn3)cc2c1	2.8%
CN1CCc2cc3c(c4c2C1CC41CCC(=NO)CC1)OCO3 (centres undefined)	25.1µM*
CC1(C)NC(=O)N(CCCSc2ccc(Cl)cc2)C1=O	6.7%
CC(C)NC(=O)CN1CCC(O)(c2ccccc2)CC1	-2.9%
CC(C)(C)c1ccc(S(=O)(=O)N2CCN(CCC#N)CC2)cc1	-0.1%
CN(C)CCNC(=O)C(C(=O)c1ccc(F)cc1)n1ccccc1=O (centres undefined)	7.8%
CCOC(=O)c1[nH]c(C)c(C(=O)c2cc(F)ccc2F)c1C	-7.7%
O=C(O)c1ccccc1S(=O)(=O)c1ccccc1CO	0.3%
CCCCn1c(=O)n(C)c(=O)c2c(C(F)(F)F)cc(-c3ccncc3)nc21	25.1µM*
COc1ccccc1CN1CC[C@@]2(CCCN(C(=O)c3c(C)noc3C)C2)C1	-2.0%
O=C(c1cccs1)N(C(=O)c1cccs1)c1ccccn1	1.6%
NC(C(=O)O)[C@@H]1CC(Cl)=NO1 (some centres undefined)	-0.6%
CCS(=O)(=O)n1nc(-c2ccccc2)cc1N	9.0%
Cc1ccc(C)c(CN2C(=O)C3(OCCCO3)c3ccccc32)c1	-10.8%
COCCN(CCOC)S(=O)(=O)c1ccc(C(=O)Nc2nc(-c3ccncc3)cs2)cc1	-2.5%
N#Cc1nc(-c2ccc(OCc3ccccc3)cc2)oc1NCCCn1ccnc1	31.6µM*
CCOc1cccc(OCCOCCN2CCCC2)c1	11.2%
COC(=O)C1CCN(C(=O)CSc2nnc(-c3ccncc3)o2)CC1	-11.7%
Cc1c(NC(=O)OCCSc2nc(N(C)C)nc(N(C)C)n2)sc(=S)n1C	-0.1%
CCN(CC)c1ccc(NC(=O)c2cnc3ccccn3c2=O)c(C)c1	3.6%
OC(COc1ccc(Cl)c2ccccc12)CN1CCN(c2ccccn2)CC1 (centres undefined)	?
CC(C)Sc1nc2c(c(=O)n(C)c(=O)n2C)n1Cc1ccc(Cl)cc1	12.9%
CCCNS(=O)(=O)c1ccc2c(c1)CCCN2C(C)=O	10.6%
CSc1nnc(-c2ccco2)n1-c1ccccc1	-1.9%
Cc1c(C(=O)O)cnc2cc(-c3ccc(Cl)cc3)nn12	25.1µM*
COc1ccccc1CCn1c(=O)c(C)nc2cncnc21	-2.2%
C=CCSC1=C(C#N)C(c2ccccc2)CC(=O)N1 (centres undefined)	-14.4%
CC(=O)OCC1OC(C#Cc2ccc(F)cc2F)C=CC1OC(C)=O (centres undefined)	-6.5%[11.4 µM]
Cc1ccc(C(C)C)c(OCC(O)CN2CC(C)OC(C)C2)c1 (centres undefined)	9.3%
CC1(C)Cc2c(sc(NC(=O)c3ccco3)c2C#N)CO1	-3.4%
CCC1=C(OC(=O)N(CC)CC)N2C(=O)OC(=NCCc3c[nH]c4ccccc34)[C@]2(C)[C@H]2C1=CC[C@H]1C(=O)NC(=O)[C@H]12	-0.8%
CC1CCN(c2ccccc2N)CC1	19.0%
Cc1ccc(-c2csc3ncnc(Sc4nnc(CN5CCCCCC5=O)o4)c23)cc1	?
CCc1nc2c(cnn2-c2ccc(Cl)cc2)c(=O)n1-c1ccc2c(c1)OCCO2	10.9%
CCCCOC(=O)c1ccc(NC(=O)c2cnccn2)cc1	1.0%
COC(=O)[C@@H]1C[C@@]2(O)[C@H](O)[C@H](O)[C@H](O)C[C@H]2N1C/C=C/c1ccccc1	6.0%
O=S(=O)(c1ccc2c(c1)OCCO2)N(Cc1ccc(F)cc1)Cc1nnc(-c2cccs2)o1	10.6%
Cc1ccc(NC(=O)C2CCN(S(=O)(=O)c3cnc[nH]3)CC2)nc1	0.7%
O=C(Nc1ccc(Oc2ccc(NC(=O)c3ccco3)c(NC(=O)c3ccco3)c2)cc1)c1ccco1	-12.8%
O=C(CCn1c(=O)[nH]c2ccccc2c1=O)NCCCN1CCN(c2cccc(Cl)c2)CC1	-10.8%
COc1cccc(C(c2nnnn2CS(=O)(=O)c2ccc(C)cc2)N2CCN(C)CC2)c1OC (centres undefined)	-3.5%
Clc1cccc(-c2nnc(-c3ccccc3)o2)c1	-6.2%
O=C(Nc1cccc(Br)c1)c1ccn[nH]1	-0.9%

Quoted at random: six records from the list, in no set order.
SMILES	HSD17B inh
CC1CCN(c2ccccc2N)CC1	19.0%
O=C(CCn1c(=O)[nH]c2ccccc2c1=O)NCCCN1CCN(c2cccc(Cl)c2)CC1	-10.8%
Cc1ccc(-c2csc3ncnc(Sc4nnc(CN5CCCCCC5=O)o4)c23)cc1	?
COc1cccc(C(c2nnnn2CS(=O)(=O)c2ccc(C)cc2)N2CCN(C)CC2)c1OC (centres undefined)	-3.5%
Cc1ccc(NC(=O)C2CCN(S(=O)(=O)c3cnc[nH]3)CC2)nc1	0.7%
O=S(=O)(c1ccc2c(c1)OCCO2)N(Cc1ccc(F)cc1)Cc1nnc(-c2cccs2)o1	10.6%

Ordered by length of the SMILES (descending): 3 of the compounds above.
SMILES	HSD17B inh
O=C(CCn1c(=O)[nH]c2ccccc2c1=O)NCCCN1CCN(c2cccc(Cl)c2)CC1	-10.8%
Clc1cccc(-c2nnc(-c3ccccc3)o2)c1	-6.2%
CC1CCN(c2ccccc2N)CC1	19.0%

(next part)
SMILES	HSD17B inh
Cc1cc(=O)n2nc(N3CCC(C(=O)NCCc4ccccc4)CC3)sc2n1	4.7%
CCN(Cc1ccccc1)C(=O)Cn1cnc2c1c(=O)n(C)c(=O)n2C	7.8%
O=C(O)c1nc2ccccc2nc1C(=O)O	0.7%
CC(=O)OCC1OC(n2c(Br)nc3c(=O)[nH]c(N)nc32)C(OC(C)=O)C1OC(C)=O (centres undefined)	-0.8%
CC1(C)C(c2ccccc2)=NC(c2ccc(F)cc2)N1O (centres undefined)	-11.3%
CC(C)C(NC(=O)c1ccccc1NC(=O)c1ccco1)C(=O)O (centres undefined)	-5.5%
COc1cccc(NC(=O)CCP(C)(=O)O)c1	-1.7%
Cc1cc(C(=O)Nc2cnn(Cc3ccc(Cl)cc3Cl)c2)no1	8.1%
COC(=O)c1ccc(OCC(=O)c2ccc(O)cc2O)cc1	-14.5%
CCOC(=O)N1CCN(C(=O)c2ccc3c(SCC(=O)O)c4c(nc3c2)CCC4)CC1	?
O=c1cc(N2CCc3ccccc3C2)[nH]c(=O)n1C1CCCCC1	10.8%
O=C(NC1CCCCC1)C1CCN(S(=O)(=O)N2CCCCCC2)CC1	0.1%
Cc1cc(C)n(C(=O)CCC2COc3ccccc3O2)n1 (centres undefined)	-18.3%
O=C(Cc1cccs1)N1CCC(c2nc3c(nnn3Cc3ccccc3Cl)c(=O)[nH]2)CC1	-1.6%
c1ccc(-c2ccc(C(c3ccccc3)n3ccnc3)cc2)cc1 (centres undefined)	5.1%
CN(C)c1nc(N)nc(-c2cccnc2)n1	10.9%
O=C(CCNc1ccc(Cl)c(C(F)(F)F)c1)c1ccco1	-12.8%
CC(C)(C)C1(C)OC(C(N)=O)C(C(N)=O)O1 (centres undefined)	-3.9%
COc1ccc(OC)c2[nH]c(=O)c(CCNC(=O)C(C)C)cc12	-10.8%
COc1cccc(NC(=O)c2ocnc2C)c1	-12.6%
O=C(CCc1nc2ccccc2[nH]1)Nc1ccc(F)cc1	22.6%
Cc1ccc2nsnc2c1S(=O)(=O)N1CCN(C(=O)C2CCCO2)CC1 (centres undefined)	-13.8%
CCc1nc2ccccc2n1Cc1ccc(OC)c(OC)c1	7.6%
CCOc1nc(NCCc2ccc(OC)c(OC)c2)nc(NC(C)(C)CO)n1	-1.2%
O=C(CSc1nnc(C2COc3ccccc3O2)o1)Nc1nccs1 (centres undefined)	10.4%
COc1ccc(C)cc1NC(=O)CSc1nnc(-c2ccccn2)n1Cc1ccco1	1.6%
COCCNc1nc(-c2ccccc2OC)nc2ccccc12	-26.0%
CCOC(=O)NC(=O)CSc1ccccn1	-1.8%
Cc1cc(NC(=O)CSc2nc(C(C)C)nc3sc4c(c23)CCCC4)no1	4.6%
COC(=O)NC(c1cccc(C)c1)C(C(C)=O)C(=O)OC (centres undefined)	-0.7%[11.4 µM]
Cc1nc(NCCO)c2nc(-c3ccccc3)n(CC3CCN(C)CC3)c2n1	25.1µM*
COc1cccc(NC(=O)N2CCN(c3cccc(C)c3C)CC2)c1	4.5%
Cc1ccc(C(O)c2nccn2C)o1 (centres undefined)	-5.8%
O=C(O)CSCC(=O)Nc1cc(C(F)(F)F)ccc1Cl	8.1%
O=C(c1ccco1)N1CCC2(CCCN(Cc3ccccc3)C2)CC1	5.0%
C=CCn1c(=O)c2ccccc2n2c(SCC(=O)NCCc3ccccc3)nnc12	-12.0%
Cc1ccc(C(=O)NCCCCNC(=O)c2ccc(C)o2)o1	4.5%
CC1Cn2c(nnc2-c2ccc(F)cc2)S1 (centres undefined)	1.4%
Cc1occc1-c1nnc(SCC(=O)N2CCN(c3ccccc3)CC2)n1C	-2.0%
O=C(Cn1c(C(=O)N2CCN(C3CCCC3)CC2)cc2sccc21)c1ccccc1	-0.6%
CCC(C#CCN1CCCCC1)(CC)OCCC#N	0.5%
O=C1C(Cl)=C(NCCN2CCOCC2)C(=O)c2ncccc21	?
Cc1nnc(SCC(=O)Nc2nc(-c3ccccc3)cs2)n1N	8.7%
Cn1cccc1C(=O)NC(=O)CSc1cccc[n+]1[O-]	-3.0%
CC1CCCN(C(=O)c2ccc3nc[nH]c3c2)C1 (centres undefined)	2.8%
O=C1CC(c2ccccc2)CC2=C1CN(C1CCCCC1)CN2 (centres undefined)	-4.0%
Cn1c(N2CCCC2)nc2c1c(=O)n(Cc1ccc(Cl)cc1)c(=O)n2C	-5.2%
CN=Cc1sc2ccccc2c1O	-11.1%
CC1CCC/C(=C\Nc2ccccc2C(=O)O)C1=O (centres undefined)	31.6µM*
CC(C)(C)NC(=O)C(c1ccc(OCC(N)=O)cc1)N(C(=O)c1cccnc1)C1CC1 (centres undefined)	0.5%
COc1ccccc1-c1cc(NCc2cccc(C)c2)ncn1	-21.9%
COc1ccccc1OCc1ccc(C(=O)OCC2CCCO2)o1 (centres undefined)	-2.2%
Cn1c(=S)c2[nH]c(SCCCc3ccccc3)nc2n(C)c1=O	11.2%[11.4 µM]
Cc1nc2ccccc2c(=O)n1/N=C/c1ccc(O)cc1	-7.8%
O=C(O)c1ccc(-c2ccccc2)[nH]1	-24.1%
C(=C\c1ccccc1)/CSc1nnc(-c2ccccn2)n1Cc1ccco1	-9.8%
CC(=O)c1c(NC(=O)C(C)C)nc(C)nc1-c1ccccc1	13.1%
CSc1ccc(NC(=O)NCCCN2CCN(c3ccccc3F)CC2)cc1	-10.5%
Cn1c(SCC(=O)Nc2cccc(F)c2)nnc1-c1cc2ccccc2o1	4.3%
Oc1ccccc1CNCCCNCc1ccccc1O	?
Later entries.
SMILES	HSD17B inh
Cc1cccc(Nc2nc(N)nc(CN3CCN(c4ccccc4)CC3)n2)c1	1.7%
Cc1cc(NC(=O)CCCC(=O)OCC(F)(F)C(F)F)cc(C)c1C(=O)O	-0.8%
COc1ccc(OC)c(NC(=O)N[C@@H](Cc2ccccc2)C(=O)O)c1	11.4%
CCOC(=O)C1CCCN(C(=O)C2CCN(Cc3nc(-c4ccc(Cl)cc4)oc3C)CC2)C1 (centres undefined)	3.1%
C=CCNC(=O)C1CC(=O)N(c2ccc(OCC(=O)Nc3ccc(C)cc3)cc2)C1 (centres undefined)	-0.4%
O=C(Cc1ccccc1)Nc1ccc(CN2CCOCC2)cc1	-4.4%
Cc1cc(C)cc(OCC(=O)NC2=NCCS2)c1	3.4%
S=c1[nH]nc(-c2cccnc2)n1Cc1ccccc1	87.5%[activator]
CNC(=O)c1nnn(-c2ccccc2)c1C(=O)NC	-10.7%
COCCn1c(=O)[nH]c2cc(C(=O)NCCN3CCN(c4cccc(Cl)c4)CC3)ccc2c1=O	?
COc1ccc(C(=O)N2CCC[C@@]3(CCN(c4ccccn4)C3)C2)cc1	?
Cc1nn(CC(C)C)c(=S)[nH]c1=O	0.6%
COc1ccc(CNC(=O)C2CCCN2S(=O)(=O)c2ccccc2)cc1 (centres undefined)	1.3%
c1cncc(-c2cncnc2-n2ccnc2)c1	-12.1%
